Measles inh = inhibitors of measles virus growth in cells, primary screen, measles RdRp inhibitor project, cell-based, single point, HTS; infected Vero cells, GFP fluorescence, 64 h; hits give low values; z-score (concentration not given with the values); 0.1% of 33,000 active; AID 745, 2007;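 active = z-score under -3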;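 note: score is relative to mean and SD of the compound wells of a plate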
* hit, by the source's call.

Measles inh	Molecule
1.26	O=C(NCc1ccc2c(c1)OCO2)c1ccc2c(c1)N(Cc1cccc(Cl)c1)C(=O)CS2
0.28	Cc1nn(-c2ccccc2)c(Cl)c1C(=O)Oc1cccc2cccnc12
-0.1	Cc1sc2nc3c4ccccc4c(N4CCCCC4)nn3c(=O)c2c1C
0.53	CCOC(=O)c1ccc(NC(=O)C2C3CCC(C3)C2C(=O)O)cc1 (stereo unspecified)
-0.11	c1csc(-c2nc3ccccn3c2Nc2ccc3c(c2)OCCO3)c1
0.2	COc1cc2[nH]c(=O)n(CCCC(=O)N3CCN(c4ccccn4)CC3)c(=O)c2cc1OC
-1.13	CCCCCC(=O)Nc1ccc(CC#N)cc1
-1.46	CCOP(=O)(OCC)C(Nc1ccc(Br)cc1)c1cc(Br)ccc1O (stereo unspecified)
0.75	CCOc1ccc(-c2cc(C(F)(F)F)c(C#N)c(SCCC(=O)O)n2)cc1
-0.32	CCC(=O)N1CCc2cc(S(=O)(=O)Nc3cccc(SC)c3)ccc21
-0.87	c1cncc(-c2noc(-c3cccnc3)n2)c1
0.32	CCn1c(SC)nc2ccccc2c1=O
0.06	CCC(C(=O)Nc1cccc(Cl)c1)n1nc(-c2ccc(OC)cc2)ccc1=O (stereo unspecified)
-1.19	COc1ccccc1Nc1ccc2ccccc2c1
0.82	COc1cccc(NC(=O)Cn2c3ccccc3c(=O)c3cc(C)ccc32)c1
2.6	O=C(OCCN1C(=O)c2cccc3c(N4CCOCC4)ccc(c23)C1=O)c1ccccc1Br
0.05	CC(=O)c1ccc(NC(=O)c2ccc3snnc3c2)cc1
-0.2	Cc1cccc(C)c1NC(=O)C1(N(C)C(=O)CSc2nc3ccccc3o2)CCCCC1
-0.89	O=C(Nc1ccc(Cc2ccncc2)cc1)C1CCCN1S(=O)(=O)c1ccccc1 (stereo unspecified)
-0.69	Cc1ccc(S(=O)(=O)Nc2ccccc2C(=O)Nc2nc3c(s2)C(=O)CC(C)(C)C3)cc1
0.81	Cc1ccc(Cl)cc1NC(=O)c1cnn2c1NC(c1ccco1)CC2C(F)(F)F (stereo unspecified)
-0.21	Cc1ccc(C(=O)Nc2ccc(-c3nc4cc(C)ccc4o3)cc2)c(Cl)c1
-0.59	O=c1c([N+](=O)[O-])c(O)c2ccccc2n1Cc1ccccc1
-0.67	COc1cccc(C=Nc2cc(C)on2)c1O
-0.38	O=C(c1ccc(CS(=O)(=O)Cc2cccc(Cl)c2)o1)N1CCOCC1
0.43	Cc1ccc(NC(=O)c2cc3ccccc3oc2=O)c([N+](=O)[O-])c1
0.22	O=C(Nc1ccc([N+](=O)[O-])cc1Br)c1cccnc1
-0.54	Cc1[nH]nc2c1C(c1ccc([N+](=O)[O-])cc1)C1=C(CC(C)(C)CC1=O)N2 (stereo unspecified)
0.26	O=C(Nc1cccc2ccccc12)c1cnn2c(C(F)(F)F)cc(-c3ccccc3)nc12
0.13	CCCCNC(=O)CSc1nc2ccccc2c2nc3ccccc3n12
-0.39	Cc1ccc(N2CC(C(=O)NC(C)c3ccccc3)CC2=O)cc1 (stereo unspecified)
0.51	CC1CCCc2sc3nc(SCc4ccccc4)nc(N)c3c21 (stereo unspecified)
-0.08	CCN(CC)c1ccc(NS(=O)(=O)c2cc(Br)cc3c2N(C(=O)C2CC2)CC3)c(C)c1
0.53	COC(=O)C1=CN(Cc2ccc(Cl)cc2)C=C(C(=O)OC)C1c1ccccc1Cl
-0.91	Cc1ccc(C(=O)Nc2ccc(Br)cc2)cc1S(N)(=O)=O
-1.15	CCCCCSc1nnc2c(n1)OC(c1cccnc1)N(C(C)=O)c1ccccc1-2 (stereo unspecified)
1.07	COc1ccc(N2C(=O)c3cccc4cccc(c34)C2=O)cc1Cl
-0.71	O=C(Nc1cccc(Cl)c1)C1CCN(S(=O)(=O)c2cccc3nonc23)CC1
-0.12	CCCCN(C)S(=O)(=O)c1ccc(C(=O)Nc2nc3c(s2)Cc2ccccc2-3)cc1
1.42	COc1ccc(NC(=O)Cn2c(C)nc3ccccc3c2=O)cc1Cl
-1.17	CN(Cc1ccccc1)C(=O)C(Cc1ccccc1)NS(=O)(=O)c1cccs1 (stereo unspecified)
-0.49	CCS(=O)(=O)N1CCCC(C(=O)NC2CCC(C)CC2)C1 (stereo unspecified)
-0.23	O=C(Nc1ccccc1[N+](=O)[O-])c1ccncc1
2.91	O=C(NCC1CCCO1)c1cc2n(n1)C(C(F)(F)F)CC(c1ccc(Br)cc1)N2 (stereo unspecified)
-0.91	O=C1C2CC=CCC2C(=O)N1c1ccc(N2CCC3(O)CCCCC3C2c2ccc(Br)cc2)c([N+](=O)[O-])c1 (stereo unspecified)
2.13	NC(=O)C1(N2CCCCC2)CCN(C(=O)CCCn2c(=S)[nH]c3cc4c(cc3c2=O)OCO4)CC1
1.18	CC(C)c1nnc2c3c4c(sc3ncn12)CCCC4
-0.65	Fc1ccc(Oc2nc(Nc3cccc(Cl)c3)nc(N3CCOCC3)n2)cc1
-0.32	O=C(NCc1ccc2c(c1)OCO2)N1CCOCC1
-0.44	Cc1ccnc(NS(=O)(=O)c2ccc(NC(=O)c3c(-c4ccccc4Cl)noc3C)cc2)n1
0.39	CCc1ccc(CNC(=O)CN2C(=O)COc3ccc(C(C)(C)C)cc32)cc1
1.39	COC(=O)c1sc2nc(-c3ccncc3)cc(C(F)(F)F)c2c1N
0.02	COc1ccc(OC)c(NC(=O)NS(=O)(=O)c2ccc(C)cc2)c1
1.37	CCOCCCNC(=O)c1cn(CC(C)C)c(=O)c2c1c1ccccc1n2C
-0.21	COc1ccc(OC)c(CN2CCN(Cc3ccccc3Br)CC2)c1
-0.04	NC(=O)C1CCN(C(=O)c2ccc3c(c2)nc(SCC(=O)c2ccccc2)n2c4ccccc4nc32)CC1
-0.36	CC1(C)CC(Cc2nc(=S)[nH][nH]2)C(=O)O1 (stereo unspecified)
-0.71	CCCOc1ccc(C2C3=C(CCCC3=O)Nc3ccc4nc(C)ccc4c32)cc1 (stereo unspecified)
-0.38	CCOc1ccccc1N(C)C(=O)c1nn(-c2ccc(C)cc2)c(=O)c2c1c1ccccc1n2C
1.46	Cc1ccc(OCC(=O)Nc2cc3nn(-c4ccc(Cl)cc4)nc3cc2C)cc1

The list goes on.
Measles inh	Molecule
-0.19	CCN(CC)C(=O)c1c(NC(=O)c2ccccc2Cl)sc2c1CCCCC2
0.62	Cc1cc(C)nc(SCC(=O)OC2CC(C)CCC2C(C)C)n1 (stereo unspecified)
2.5	O=C(CSc1nnc2c3ccccc3n(Cc3ccccc3)c2n1)NCc1ccco1
-0.47	CC1CCN(C(=O)Cn2c(=O)n(-c3ccccc3)c(=O)c3sccc32)CC1
-0.57	Cc1c(-c2nc(-c3ccncc3)no2)cccc1[N+](=O)[O-]
-0.21	COc1ccc(CN2CCN(S(=O)(=O)c3cccs3)CC2)c(OC)c1OC
0.44	Cc1ccc(NS(=O)(=O)c2ccc3c(c2)CCC(=O)N3)c(C)c1
0.16	COC(=O)CSc1cc(C)nc(NC(C)=O)n1
-0.62	COc1cc(NC(=O)COCC(=O)O)cc(-n2cnnn2)c1
0.95	O=C(CS(=O)(=O)c1c[nH]c2ccccc12)N1CCCc2ccccc21
-0.12	CC(C)(C)c1ccc(OC(=O)c2ccc([N+](=O)[O-])cc2)cc1
-0.08	O=C1C(=O)N(c2cccc([N+](=O)[O-])c2)C(c2ccc(F)cc2)/C1=C(\O)c1ccccc1 (stereo unspecified)
-0.56	CC1=C(C(=O)OCCOC(C)C)C(c2ccc([N+](=O)[O-])cc2)C2=C(CC(C)(C)CC2=O)N1 (stereo unspecified)
-0.81	CCOC(=O)c1[nH]c2ccccc2c1NC(=O)c1ccc(Cl)c([N+](=O)[O-])c1
-1.53	Cc1ccc(CNc2ccc(N3C(=O)C4C5C=CC(C5)C4C3=O)cc2[N+](=O)[O-])cc1 (stereo unspecified)
5.08	Fc1ccccc1C1C=C(c2ccc(Br)s2)Nc2nc3ccccc3n21 (stereo unspecified)
-0.21	O=C(CCCn1c(=S)[nH]c2cc3c(cc2c1=O)OCO3)NCCCN1CCCC1
0.46	COc1ccc(CCN2C(=O)C3C4c5ccccc5C(C)(c5ccccc54)C3C2=O)cc1OC (stereo unspecified)
-0.17	COc1ccc(OC)c(C2/C(=C(\O)c3ccccc3)C(=O)C(=O)N2c2nc3ccccc3s2)c1 (stereo unspecified)
-0.15	CN(Cc1ccccc1)S(=O)(=O)c1ccc(C(=O)Nc2ccccc2-c2nc3ccccc3[nH]2)cc1
0.44	CC(C)Sc1nc(SC(C)C)c2c3c(sc2n1)COC(C)(C)C3
-0.64	CCOC(=O)c1cc2c(=O)n3ccccc3nc2n(C)c1=NC(=O)c1ccc([N+](=O)[O-])cc1
0.41	Cc1cc2c(Nc3ccc(Oc4ccc(Cl)cc4)cc3)ncnc2s1
0.19	Fc1ccc(C2C=C(c3ccc(I)cc3)Nc3ncnn32)cc1 (stereo unspecified)
-0.04	Cc1cc(NC(=O)CC23CC4CC(CC(C4)C2)C3)no1
-0.55	CCOc1ccccc1NC(=O)C1=C(C)NC(=O)NC1c1ccc(O)cc1 (stereo unspecified)
-0.14	Cc1ccc(NC(=O)CSc2nc3nc(C)c(Cc4ccccc4F)c(C)n3n2)cc1
-1.58	CCCNc1c(N)cc(C(F)(F)F)cc1[N+](=O)[O-]
-0.14	O=C(CNS(=O)(=O)c1cccc2nonc12)NCCc1ccccc1
0.29	CCC(=O)Nc1c(C)n[nH]c1C
2.03	COc1ccc(C(=O)N2CC(=O)Nc3ccc(Cl)cc3C2c2ccccc2)cc1 (stereo unspecified)
-0.17	O=C(CSc1nc2ccc(NC(=O)c3ccc(Br)cc3)cc2s1)NCC1CCCO1 (stereo unspecified)
1.35	Cc1ccc2nc(-c3ccc(C)o3)c(NC3CCCC3)n2c1
-0.35	CCOc1ccc(-n2c(-c3ccc(OC)cc3)c[n+]3c2CCCCC3)cc1
0.46	O=C(NCc1ccccc1)C(=O)NCc1cccnc1
1.12	CC(=O)Nc1cc(C(=O)NCC2CCCO2)ccc1Sc1ccc(C)cc1 (stereo unspecified)
-0.61	CC12CC(NC(=O)N1c1ccc(C(=O)NCc3ccccn3)cc1)c1ccccc1O2 (stereo unspecified)
-0.44	COc1cc(OC)c(OC)cc1CN1CCCC(C(=O)N2CCCCCC2)C1 (stereo unspecified)
0.7	Cc1cc(=O)oc2cc(OCc3ccccc3F)c(Cl)cc12
0.6	CCOc1ccc(NC(=O)c2ccc(N3CC4CC(C3)c3cccc(=O)n3C4)c(NC(=O)c3cccc(C(F)(F)F)c3)c2)cc1 (stereo unspecified)
-0.75	CCCc1nc2sc3c(NCCO)ncnc3c2c2c1COC(C)(C)C2
-0.3	COc1cc2nc(SCC(=O)Nc3cccc(C)c3)n3nc(C)nc3c2cc1OC
0.26	CCCOc1ccc(C(=O)Nc2ccc3oc(-c4ccccc4)nc3c2)cc1
0.63	CCN(CC)CCCC(C)Nc1nc(C)nc2ccccc12 (stereo unspecified)
0.26	CCCCN1CC(C(=O)NC(C)C)CC1=O (stereo unspecified)
-0.53	Cc1ccc(C)c(NS(=O)(=O)c2ccc3c(c2)C2C=CCC2C(c2cccc(Cl)c2)N3)c1 (stereo unspecified)
0.66	Cc1cccc(N(CC(=O)Nc2ccc(CC#N)cc2)S(C)(=O)=O)c1C
-0.14	COc1ccc(C(=O)Nc2nc(N3C(=O)c4ccccc4C3=O)n(-c3ccccc3)n2)cc1
1.5	Cc1noc(C)c1S(=O)(=O)N1CCC(C(=O)Nc2nc3c(C)cccc3s2)CC1
-0.38	O=C1CSC(c2ccccn2)N1c1ccc(Oc2ccccc2)cc1 (stereo unspecified)
-0.3	Cc1cc(C)cc(OCC(=O)Nc2ccc(S(=O)(=O)Nc3ncccn3)cc2)c1
-0.03	COc1ccc(C2CC(=O)C3=C(C2)Nc2ccccc2N(C(C)=O)C3c2cccc(F)c2)cc1 (stereo unspecified)
-0.98	CCN1CCCC1CNC(=O)c1ccc2c(=O)n(Cc3ccc(OC)cc3)c(=S)[nH]c2c1 (stereo unspecified)
-0.59	CCN(CC)C(=O)Cn1c(=O)n(-c2ccccc2)c(=O)c2c3c(sc21)CCCC3
-0.69	COc1ccccc1CNS(=O)(=O)c1cccc2nonc12
0.51	COC(=O)c1ccc2c(=O)n(CCCCCC(=O)O)c(=O)[nH]c2c1
-0.83	CCOC(=O)C1=C(C)NC2=C(C(=O)CC(C)(C)C2)C1c1ccc(OC)cc1 (stereo unspecified)
0.27	O=C(CCN1C(=O)c2cccnc2C1=O)NC1CCCCCC1

Gathered by group: those above with a nitro group on carbon
Measles inh	Molecule
-0.59	O=c1c([N+](=O)[O-])c(O)c2ccccc2n1Cc1ccccc1
0.43	Cc1ccc(NC(=O)c2cc3ccccc3oc2=O)c([N+](=O)[O-])c1
0.22	O=C(Nc1ccc([N+](=O)[O-])cc1Br)c1cccnc1
-0.54	Cc1[nH]nc2c1C(c1ccc([N+](=O)[O-])cc1)C1=C(CC(C)(C)CC1=O)N2 (stereo unspecified)
-0.23	O=C(Nc1ccccc1[N+](=O)[O-])c1ccncc1
-0.91	O=C1C2CC=CCC2C(=O)N1c1ccc(N2CCC3(O)CCCCC3C2c2ccc(Br)cc2)c([N+](=O)[O-])c1 (stereo unspecified)
-0.57	Cc1c(-c2nc(-c3ccncc3)no2)cccc1[N+](=O)[O-]
-0.12	CC(C)(C)c1ccc(OC(=O)c2ccc([N+](=O)[O-])cc2)cc1
-0.08	O=C1C(=O)N(c2cccc([N+](=O)[O-])c2)C(c2ccc(F)cc2)/C1=C(\O)c1ccccc1 (stereo unspecified)
-0.56	CC1=C(C(=O)OCCOC(C)C)C(c2ccc([N+](=O)[O-])cc2)C2=C(CC(C)(C)CC2=O)N1 (stereo unspecified)
-0.81	CCOC(=O)c1[nH]c2ccccc2c1NC(=O)c1ccc(Cl)c([N+](=O)[O-])c1
-1.53	Cc1ccc(CNc2ccc(N3C(=O)C4C5C=CC(C5)C4C3=O)cc2[N+](=O)[O-])cc1 (stereo unspecified)
-0.64	CCOC(=O)c1cc2c(=O)n3ccccc3nc2n(C)c1=NC(=O)c1ccc([N+](=O)[O-])cc1
-1.58	CCCNc1c(N)cc(C(F)(F)F)cc1[N+](=O)[O-]

Screens (PubChem)

Only part of the results is shown; the hit share may differ from the screen's.
